Screening data (PubChem BioAssay)
GIRK2 act: activators of human GIRK2 potassium channels; hit rate 0.05% among 63,000; HEK293-GIRK2 thallium flux, Thallos fluorescence; calls only for hits at 25 µM; G protein-activated inward rectifier potassium channel 2 (Homo sapiens), P48051; AID 1259325, 2017;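 active = among the strongest 0.2% of first-round signals and kept after retests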;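 note: first round at about 10 µM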
Target sequence (P48051 whole entry, looked up): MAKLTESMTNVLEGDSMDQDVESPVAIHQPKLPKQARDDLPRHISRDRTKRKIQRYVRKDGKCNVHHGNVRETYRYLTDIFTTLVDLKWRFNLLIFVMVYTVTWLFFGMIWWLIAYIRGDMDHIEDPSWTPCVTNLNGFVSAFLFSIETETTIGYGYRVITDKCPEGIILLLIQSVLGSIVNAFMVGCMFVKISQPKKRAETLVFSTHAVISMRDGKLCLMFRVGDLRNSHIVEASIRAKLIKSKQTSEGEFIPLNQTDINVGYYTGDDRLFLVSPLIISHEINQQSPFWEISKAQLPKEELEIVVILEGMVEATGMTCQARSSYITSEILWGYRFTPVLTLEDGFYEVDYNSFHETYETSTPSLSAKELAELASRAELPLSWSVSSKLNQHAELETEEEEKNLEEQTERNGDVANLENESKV
Calls only; i = inactive. A portion of the library. The share of hits here may be higher or lower than overall.

SMILES	GIRK2 act
CC(C)c1c(C(=O)Nc2ccccc2F)nnn1-c1ccc(Cl)cc1	i
CC(C)c1nccn1CC1CCN(C(=O)c2csc(-c3ccccc3)n2)CC1	i
CCOc1ccccc1C(=O)N(Cc1ccoc1)Cc1cccs1	i
O=C(c1ccccc1C(F)(F)F)N1CCN(C2=NN=C(c3ccccc3)CS2)CC1	i
CC(C)CCNc1nnc(N2CCOCC2)c2ccccc12	i
CCOC(=O)N1CCc2c(sc(NC(=O)CCc3ccccc3)c2-c2nc3ccccc3s2)C1	i
COc1ccc(CNC(=O)Nc2ccc(CC(=O)NC3CC3)cc2)cc1OC	i
Cc1ccc(-n2c(-c3ccccc3)cn3c4c(=O)n(CC(N)=O)c(=O)n(C)c4nc23)c(C)c1	i
N#Cc1cccc(C(=O)N2CCN(Cc3nc4ccccc4n3Cc3ccccc3)CC2)c1	i
COc1ccc(OCc2noc(CNS(=O)(=O)c3c(C)noc3C)n2)cc1	i
O=C(NC1CCN(c2ccc(-c3ccccc3Cl)nn2)CC1)C1CCCO1 (stereo not given)	i
CCc1ccc(-n2cc(C(=O)N3CCC(NC(=O)c4cccc(F)c4)CC3)nn2)cc1	i
Cc1ccc(-n2cc(-c3noc(-c4ccc5c(c4)OCO5)n3)nn2)cc1	i
O=C(NCc1cnn2ccccc12)c1cc2ccccc2o1	i
Cc1c(O)ccc2c(CN3CCN(c4ccccc4)CC3)cc(=O)oc12	i
Cc1ccc(S(=O)(=O)N2CCN(c3cc(C)ccc3C)CC2)cc1	i
Cc1nc(SCc2ccccc2F)[nH]c(=O)c1CC(=O)NCc1ccncc1	i
O=C(NCCCS(=O)(=O)N1CCN(c2ccccn2)CC1)C(c1ccccc1)c1ccccc1	i
Cn1c(=O)c2c(nc3n2CCN3c2ccccc2OCC(N)=O)n(C)c1=O	i
CC1CC(C)CN(S(=O)(=O)c2c(F)cccc2F)C1 (stereo not given)	i
Cc1cccc(NC(=O)N2CCN(c3cc(N4CCOCC4)cnn3)CC2)c1C	i
Cc1cccc(C)c1NC(=O)Cn1nc(N2CCC(C)CC2)c2ccccc2c1=O	i
O=C(Nc1cc(F)ccc1F)c1cc(OCc2ccccc2)no1	i
Cc1nc2ccccn2c1C(=O)NCC1CCN(C(=O)Oc2ccccc2)CC1	i
O=C(c1ccc(-n2cccn2)nn1)N1CCc2ccccc21	i
CN(C)S(=O)(=O)c1ccc(C(=O)NCc2cc(-c3ccccn3)n(C)n2)cc1	i
CNC(=O)Cc1cc(=O)[nH]c(SCc2cccc(C(F)(F)F)c2)n1	i
COc1ccnc(CS(=O)c2nc3cc(OC(F)F)ccc3[nH]2)c1OC (stereo not given)	i
Cc1ccc(-n2ccnc(NCc3ccc(Cl)cc3)c2=O)c(C)c1	i
COc1ccc(N2CCN(S(=O)(=O)c3cc(C(=O)Nc4ccc(C(C)C)cc4)ccc3F)CC2)cc1	i
Cc1cc(OCC(=O)Nc2ccccc2Br)nc(-c2ccc(F)cc2)n1	i
O=C(Nc1nc(-c2ccncc2)cs1)C1CCCN1S(=O)(=O)c1cccs1 (stereo not given)	i
O=S(=O)(c1cccc(C(F)(F)F)c1)N1CCC(c2nnc(C(F)(F)F)o2)CC1	i
Cc1ccc(S(=O)(=O)N2CCN(CCn3nc(-c4ccccc4)ccc3=O)CC2)s1	i
O=S(=O)(c1cccnc1)N1CCN(Cc2nc3ccccc3n2Cc2ccccc2)CC1	i
CC(C)(C)OC(=O)N1CCN(CCNC(=O)c2ccc(F)c(F)c2)CC1	i
CCCCC/C=C\C/C=C\C/C=C\CCCC/C=C\CCC(=O)O	i
CCCCc1ccc(NC(=O)Cn2c(C)nc3c(c2=O)CN(Cc2ccccc2)CC3)cc1	i
CC(C)(C)S(=O)(=O)c1ccc(N2CCN(Cc3ccc4c(c3)OCO4)CC2)nn1	i
CC(C)c1nc(-c2ccc(N3CCN(C(=O)c4nc5ccccc5s4)CC3)nc2)no1	i
CC(C)(C)C1CCc2c(sc3nc(CCC(=O)N4CCOCC4)[nH]c(=O)c23)C1 (stereo not given)	i
COc1ccc(-c2nonc2NC(=O)c2cccc(Cl)c2)cc1	i
CCn1cc(-c2nc(-c3ccc(SC)cc3)no2)c(=O)c2cc(F)ccc21	i
CN(CCO)CC(O)Cn1cnc2c1c(=O)n(C)c(=O)n2C (stereo not given)	i
CCOC(=O)CCn1c(=O)c2c(nc3n(-c4cc(C)cc(C)c4)c(C)c(C)n23)n(C)c1=O	i
CCOCCCNC(=O)c1cn(CC)nc1S(=O)(=O)N1CCN(c2cccc(Cl)c2)CC1	i
Cc1ccc(C(=O)Nc2sc3c(c2-c2nc4ccccc4s2)CCN(C)C3)cc1C	i
Cc1cc(C)c2c(c1)c(=O)c1c(n2C)CCN(C(=O)Nc2ccc3c(c2)OCO3)C1	i
O=C(NC1CC(=O)N(c2ccccc2)C1)c1ccccc1C(F)(F)F (stereo not given)	i
COc1cccc(/C=C/c2nc(C#N)c(N3CCN(C(=O)c4cccc(Cl)c4)CC3)o2)c1	i
COc1ccc(-c2c(C)oc3cc(OC(=O)c4ccc(OC)c(OC)c4)ccc3c2=O)cc1	i
COc1ccc(Cl)cc1NC(=O)Nc1ccc2c(c1)N(C)C(=O)C(C)(C)CO2	i
O=C1CN(C(=O)c2nnn(-c3ccc(Cl)cc3)n2)CCN1	i
COc1cccc(NC(=O)c2ccc(S(=O)(=O)N3CCCCC3)cc2)c1	i
Cc1nc(C)c(-c2ccc(=O)n(CCNS(=O)(=O)c3ccc4c(c3)OCCO4)n2)s1	i
NC(=O)CSc1nccc2c(OCc3ccc(F)cc3)cccc12	i
COc1ccc(CC(C)(O)CNC(=O)c2ccccc2OC)cc1 (stereo not given)	i
COc1ccc(C2CC3C4NN=C(CCC(=O)N5CCN(c6ccccc6)CC5)N4C=CN3N2)cc1 (stereo not given)	i
N#Cc1ccc(C(=O)N2CCC3(CC2)OCCS3)cc1	i
O=C(Cn1cnc2c(sc3ncccc32)c1=O)Nc1cc(C(F)(F)F)ccc1Cl	i

Later entries.
SMILES	GIRK2 act
CCCn1c(=O)c2cc(Cl)ccc2n2c(SCC(=O)Nc3ccccc3OC)nnc12	i
CN1CCN(S(=O)(=O)c2ccc(N)cc2)CC1	i
O=c1cccnn1CCCNS(=O)(=O)c1ccc(OC(F)(F)F)cc1	i
COc1ccccc1CNC(=O)C1CCN(c2ccc(-n3cccn3)nn2)CC1	i
NC(=O)c1cccc(-c2cccc(OC(=O)NC3CCCCC3)c2)c1	i
COc1cccc(Cn2nnc3c(=O)n(Cc4nc(-c5cccc(Cl)c5)no4)cnc32)c1	i
O=C(C1CCC1)N1CCOC(c2cc(Cl)cc(Cl)c2)C1 (stereo not given)	i
O=S(=O)(Cc1ccccc1Cl)N(CCc1cccs1)Cc1ccoc1	i
CS(=O)(=O)N1CCN(C(=O)c2ccc(-n3ccnc3)nn2)CC1	i
O=C(NCc1cccc(Cl)c1)c1cn(-c2ccc(-c3nc(C4CC4)no3)cn2)cn1	i
O=C(c1ccc(NS(=O)(=O)c2cccc(Cl)c2)cc1)N1CCCCCC1	i
O=C(COc1ccc(Cl)cc1)Nc1cc(N2CCCCC2)ncn1	i
CCOc1ccccc1-n1nnc(-c2nn3c(Cc4ccccc4)nnc3s2)c1C	i
Cc1ccc(S(=O)(=O)c2nnn(-c3ccc(C(F)(F)F)c(Cl)c3)c2C)cc1	i
O=C(COc1ccc(Cl)cc1)Nc1nc(CN2CCc3ccccc3C2)cs1	i
O=C(Oc1ccc2c(=O)c(-c3ccc(Cl)cc3)coc2c1)N1CCOCC1	i
COC(=O)COc1ccc2c(=O)c(-c3ccccc3)c(C(F)(F)F)oc2c1	i
COC(=O)c1cc(OCc2cccc(OC)c2)c2ccccc2n1	i
O=c1ccc(-c2ccccc2Br)nn1Cc1nc(-c2ccc3c(c2)OCO3)no1	i
CC(C)c1ccc(OCC(=O)N2CCCC(c3nnc(C(F)(F)F)o3)C2)cc1 (stereo not given)	i
COc1cc(OC)cc(C(=O)Nc2nc3nc(C)cc(C)c3s2)c1	i
COc1cccc(-c2noc(Cn3c(=O)n(Cc4ccc(C)cc4)c(=O)c4ccccc43)n2)c1	i
CC1CCN(S(=O)(=O)N2CCN(C(=O)c3ccco3)CC2)CC1	i
COc1nn(C)cc1C(=O)NCCN1CCN(c2ccccc2)CC1	i
COc1ccccc1CNC(=O)Cn1c(C)cc(C)c(-c2nc(-c3ccccc3)no2)c1=O	i
Cc1noc(Cn2c(=O)c3ccccc3n(CC(=O)Nc3ccc(Cl)cc3)c2=O)n1	i
COc1ccc(Cn2cnc3c4ccccc4n(CC(=O)NCc4cccc(OC)c4)c3c2=O)cc1	i
COC(=O)c1ccccc1NC(=O)c1ccc(-n2cnnn2)cc1	i
COc1ccc(CCNC(=O)C2OC3OC(C)(C)OC3C3OC(C)(C)OC23)cc1 (stereo not given)	i
COc1cccc(CNC(=O)c2sc(-c3nnn(-c4ccc(F)cc4)c3C)nc2C)c1	i
Cc1ccc(S(=O)(=O)c2c(C)nn(C(C)(C)C)c2OC(=O)CCCc2ccccc2)cc1	i
Cc1nnc(NC(=O)CSc2ncc(-c3cccc([N+](=O)[O-])c3)n2-c2ccccc2)s1	i
Cn1nc(CNC(=O)c2ccccc2F)cc1-c1ccco1	i
O=C(NCCc1cccs1)c1ccc(OCc2nc(C3CC3)cs2)cc1	i
Cc1ccc(C)c2sc(N(C)CC(=O)NCc3ccco3)nc12	i
COc1ccc(Br)c(C(=O)N(Cc2cccs2)Cc2cccn2C)c1	i
CCCC1O[C@@H]2C[C@H]3[C@@H]4CCC5=CC(=O)C=C[C@]5(C)[C@H]4[C@@H](O)C[C@]3(C)[C@]2(C(=O)CO)O1 (stereo not given in full)	i
O=C(c1ccc(Br)o1)N(CCc1cccs1)Cc1ccoc1	i
CCCOc1ccc(N2CCn3c2nc2c3c(=O)n(C)c(=O)n2C)cc1	i
Cc1cc(C)n(-c2nc(CCNS(=O)(=O)c3c(C)noc3C)cs2)n1	i
O=C(CCCCn1c(=O)c2ccccc2n(Cc2ccc(F)cc2Cl)c1=O)NCc1cccs1	i
O=C(NCCCOc1cccc2cccnc12)c1ccc2c(c1)OCO2	i
Cc1noc(CNC(=O)C2CCN(C(=O)c3cccc(-n4cnnn4)c3)CC2)n1	i
COc1ccc2c(c1)c(=O)c(S(=O)(=O)c1ccc(C)cc1)cn2CC(=O)Nc1ccc(F)cc1	i
COc1ccc(C2(CNC(=O)NCCOc3ccccc3)CCOCC2)cc1	i
CC(=O)CSc1nc2c(c(=O)n(C)c(=O)n2C)n1CC(N)=O	i
CCCCn1c(SCC(=O)NCc2ccccc2Cl)nc2c(sc3ncccc32)c1=O	i
O=C(NCC1CCN(S(=O)(=O)c2cccnc2)CC1)c1cccc(Cl)c1	i
Cc1ccc(Cl)cc1S(=O)(=O)N1CC(c2nc(-c3cccs3)no2)C1	i
O=C(COc1ccccc1)NCCNc1cc(-n2cccc2)ncn1	i
Cc1cc2c(=O)n(Cc3ccco3)c(SCC(=O)Nc3ccc(O)cc3)nc2s1	i
O=C(CN1CCN(c2ccccc2)C1=O)Nc1cccnc1	i
O=c1c2cnn(CCO)c2ncn1Cc1ccc(C(F)(F)F)cc1	i
COc1ccccc1OCC#CCNC(=O)C1CCCN(C)C1 (stereo not given)	i
COc1ccc(S(=O)(=O)N(C)c2ccsc2C(=O)NC2CCCCC2)cc1	i
O=C(Nc1nc2c(s1)CCCC2)c1coc(NC(=O)C2CC2)n1	i
O=C(Nc1nc(CCC(=O)N2CCN(c3ncccn3)CC2)cs1)c1ccc(F)cc1	i
CCOC(=O)c1cn(-c2ccc(OCC)cc2)c(=O)c2ccccc12	i
COc1ccc(-c2[nH]n3c(=O)cc(C)nc3c2C)cc1OC	i
O=C(Cc1ccc(-c2ccccc2)cc1)NCC1CCN(C(=O)Oc2ccccc2)CC1	i

Shown with bars between the fields: part of the list above.
structure | GIRK2 act
Cc1cc(C)n(-c2nc(CCNS(=O)(=O)c3c(C)noc3C)cs2)n1 | i
O=C(CCCCn1c(=O)c2ccccc2n(Cc2ccc(F)cc2Cl)c1=O)NCc1cccs1 | i
O=C(NCCCOc1cccc2cccnc12)c1ccc2c(c1)OCO2 | i
Cc1noc(CNC(=O)C2CCN(C(=O)c3cccc(-n4cnnn4)c3)CC2)n1 | i
COc1ccc2c(c1)c(=O)c(S(=O)(=O)c1ccc(C)cc1)cn2CC(=O)Nc1ccc(F)cc1 | i
COc1ccc(C2(CNC(=O)NCCOc3ccccc3)CCOCC2)cc1 | i
CC(=O)CSc1nc2c(c(=O)n(C)c(=O)n2C)n1CC(N)=O | i
CCCCn1c(SCC(=O)NCc2ccccc2Cl)nc2c(sc3ncccc32)c1=O | i
O=C(NCC1CCN(S(=O)(=O)c2cccnc2)CC1)c1cccc(Cl)c1 | i
Cc1ccc(Cl)cc1S(=O)(=O)N1CC(c2nc(-c3cccs3)no2)C1 | i
O=C(COc1ccccc1)NCCNc1cc(-n2cccc2)ncn1 | i
Cc1cc2c(=O)n(Cc3ccco3)c(SCC(=O)Nc3ccc(O)cc3)nc2s1 | i
O=C(CN1CCN(c2ccccc2)C1=O)Nc1cccnc1 | i
O=c1c2cnn(CCO)c2ncn1Cc1ccc(C(F)(F)F)cc1 | i
COc1ccccc1OCC#CCNC(=O)C1CCCN(C)C1 (stereo not given) | i
COc1ccc(S(=O)(=O)N(C)c2ccsc2C(=O)NC2CCCCC2)cc1 | i
O=C(Nc1nc2c(s1)CCCC2)c1coc(NC(=O)C2CC2)n1 | i
O=C(Nc1nc(CCC(=O)N2CCN(c3ncccn3)CC2)cs1)c1ccc(F)cc1 | i

Part of the list above in a different format.
COc1ccc(C2(CNC(=O)NCCOc3ccccc3)CCOCC2)cc1
  GIRK2 act: i
O=C(Nc1nc2c(s1)CCCC2)c1coc(NC(=O)C2CC2)n1
  GIRK2 act: i

(next part)
SMILES	GIRK2 act
Cc1c(Cl)cccc1NC(=O)N1CCN(c2cc(N3CCCC3)ncn2)CC1	i
O=C(NCCNc1ccc(-n2cccc2)nn1)c1ccco1	i
COc1ccc(N2CCn3c2nc2c3c(=O)n(CC(=O)O)c(=O)n2C)cc1	i
COc1ccccc1C(=O)Nc1ccc(-n2nnn(CC(=O)NCc3ccco3)c2=O)cc1	i
O=C1CCSCC(C(=O)N2CCN(c3ccc(C(F)(F)F)cn3)CC2)N1 (stereo not given)	i
COc1ccc(CNC(=O)CCCCCn2c(=S)[nH]c3cc4c(cc3c2=O)OCO4)cc1	i
Cc1ccc(NC(=O)CN2CCC(c3nc(-c4ccc(F)cc4)no3)CC2)cc1C	i
COc1ccccc1C(=O)N1CCN(c2oc(-c3ccccc3OC)nc2C#N)CC1	i
